Sa growth 42C: S. aureus growth inhibition. AID 720641. relative growth, % (test concentration not listed). S. aureus RN4220 growth, OD600, 20 h, 42 °C; stronger effect = lower value. 170,000 tested, 0.53% active;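 active means growth at 42 °C up to 50% and 20 or more points under that at 30 °C, or under 10% at both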;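 further: 300 nL library stock went into each well; scaled to the means of positive and negative controls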
GIV-Gai inh: blocks GIV peptide binding to rat Galpha-i3 | P08753 | Galpha-i3/FITC-GIV peptide fluorescence polarization, 90 min; stronger effect = lower value; scaled: aluminum fluoride 0%, vehicle 100% | percent of control (FP), % (test concentration not listed) | 210,000 tested, 0.42% active | AID 1224905;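 active means replicate mean at 85% of control or lower, very high polarization wells dropped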;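 further: wells of about 15 µL received 100 nL stock; the first replicate is given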
Target sequence (P08753 whole entry, looked up): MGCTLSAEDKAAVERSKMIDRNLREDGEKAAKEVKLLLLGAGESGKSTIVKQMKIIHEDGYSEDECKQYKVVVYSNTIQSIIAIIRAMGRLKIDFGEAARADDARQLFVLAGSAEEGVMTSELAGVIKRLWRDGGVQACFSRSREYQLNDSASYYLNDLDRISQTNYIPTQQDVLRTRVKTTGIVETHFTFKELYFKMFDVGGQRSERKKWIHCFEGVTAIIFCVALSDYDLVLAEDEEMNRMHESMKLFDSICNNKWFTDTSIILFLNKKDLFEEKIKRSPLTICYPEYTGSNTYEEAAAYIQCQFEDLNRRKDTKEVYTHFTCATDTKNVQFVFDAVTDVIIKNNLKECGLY
HCMV UL50-53 inh: cytomegalovirus nuclear egress complex inhibition. HTRF UL50-UL53 interaction, normalized percent inhibition. inhibition, % (no concentration beside the values). 190,000 tested, 0.15% active. AID 1918969;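 active means both replicates at 50% or more, plus weaker picks with an unusually low signal ratio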;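 further: stock transfer was 100 nL into about 20 µL; 0% = negative control wells and 100% = wells with untagged competitor protein; inactives centre near -12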
Sa growth 42C second temp: also measured in Sa growth 42C; calls as there; relative growth, %; measured here: growth at 30 °C;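 optical density after 20 h as mean of two plates; 100% = untreated growth and lower means inhibition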
An asterisk follows results filed as active; . = no result given; & = joins results of further samples.

SMILES | Sa growth 42C | Sa growth 42C second temp | GIV-Gai inh | HCMV UL50-53 inh
COc1ccc(C(=O)CSC2=C(C#N)C(C)(C)C(C#N)=C(N)N2)cc1 | 120 | 96 | . | -20
O=C(C(=O)N1CCNc2ccccc2C1)c1ccccc1 | . | . | 103 | -24
Cn1c(SCC(=O)NC(=O)Nc2ccccc2F)nc2cc(S(N)(=O)=O)ccc21 | 64 | 89 | . | -17
Cc1ccc(CNc2ccc(N3CCOCC3)c(Cl)c2)s1 | 80 | 91 | 98 | .
CCOC(=O)C1C(C)=C(c2ccc(Cl)cc2)OC(N)=C1C#N (stereo unspecified) | 106 | 65 | . | -10
Cc1cccc(NC(=S)Nn2c(O)c(C)sc2=S)c1 | 78 | 60 | 94 | -16
COC(=O)c1ccc(NCc2cc(=O)n3ccsc3n2)cc1 | 77 | 90 | . | -24
Cc1nnc(NC2CCCCC2)n(C)c1=O | 86 | 89 | 99 | -5
CC1CCN(S(=O)(=O)c2ccc3c(c2)N(CC(=O)N2CCN(c4ccccn4)CC2)C(=O)CO3)CC1 | . | . | 104 | -21
COc1cc2cc(C(=O)Nc3ccccc3)c(N)nc2cc1OC | 119 | 57 | 102 | -29
CC(C)CCNC(=O)CN1C(=O)C2CCCC2=Nc2ccccc21 (stereo unspecified) | . | . | 104 | -13
CCOc1ccc(-n2c(SCC(=O)N3CCCCCC3)nc3c([nH]c4ccccc43)c2=O)cc1 | 113 | 98 | 103 | .
Cc1ccc(C)c(NC(=O)Cc2nc(CSc3nnc(-c4cccs4)o3)cs2)c1 | 79 | 82 | . | -26
CSc1ncc(OCc2ccccc2)c(=O)[nH]1 | 102 | 85 | 102 | -20
Cc1cc(OCC(=O)Nc2cc(-c3nc4ncccc4o3)ccc2C)ccc1Cl | 96 | 78 | 107 | -30
Cc1cc2cc(CN(C(=O)N(C)C)C3CCCC3)c(Cl)nc2cc1C | 117 | 79 | 98 | -21
CCn1c(-c2ccccc2)cnc1SCC(=O)N(C)C1(C#N)CCCCC1 | 96 | 96 | . | 9
O=S(=O)(Nc1cccc(C(F)(F)F)c1)c1ccc(-c2cnc(C3CC3)o2)cc1 | 80 | 72 | 101 | .
COc1ccc(NC(=O)Cn2c(=O)n(Cc3ccc(C(=O)NCc4ccccc4Cl)cc3)c(=O)c3ccccc32)cc1OC | 98 | 85 | 100 | 8
Cc1ccc(C)c(Cn2c(=O)n(-c3ccc(Cl)cc3)c(=O)c3c4c(sc32)CCC4)c1 | 92 | 99 | 104 | 23
CC(C)C(=O)NCC1(N(C)C)CCCCC1 | 108 | 87 | 105 | -22
Cc1ccccc1NC(=O)Cn1c(=O)n(CCc2ccccc2)c(=O)c2ccccc21 | 92 | 86 | 100 | -10
CC1=Nn2c(nnc2-c2ccc(C)cc2)SC1 | . | . | 98 | -35
O=S(=O)(c1ccccc1)c1nc(-c2ccc(Cl)cc2Cl)oc1N1CCCCCC1 | 92 | 87 | 103 | -27
CC(=O)C1=C(c2ccc(Cl)c(Cl)c2)N(C(C)=O)n2c(nnc2-c2ccccc2)S1 | 97 | 89 | 105 | .
Cc1ccc(CNC(=O)c2cnc3c(-c4ccccc4)c(C)nn3c2C)o1 | 91 | 89 | 98 | .
Cc1nc(Oc2ccccc2C)c2oc3ccccc3c2n1 | 65 | 65 | 97 | .
Cc1occc1-c1nnc(SCC(=O)NCc2ccccc2Cl)o1 | . | . | 97 | -24
CCOC(=O)c1noc2ncn(C(C)C(=O)N3CCCc4ccccc43)c(=O)c12 (stereo unspecified) | . | . | 105 | -24
COC(=O)c1ccc2c(c1)N(Cc1cccc(Cl)c1)C(=O)CS2 | . | . | 113 | 1
CCOC(=O)c1c(NC(=O)Cc2ccc(OC)cc2)sc(C(=O)Nc2ccccc2OC)c1C | . | . | 105 | -8
O=C(CN1c2ccc(Br)cc2-c2ccccc2S1(=O)=O)N1CCc2ccccc2C1 | . | . | 98 | 5
COc1ccc(C2c3c(n(C)c4ccccc34)C(=O)N2CC(=O)Nc2ccccc2Cl)cc1 (stereo unspecified) | 125 | 103 | 110 | .
CCN1C(=O)C(=Cc2cn(Cc3c(F)cccc3Cl)c3ccccc23)C(=O)N(CC)C1=S | 96 | 88 | 107 | .
c1ccc(Cc2nnc3sc(-c4ccccn4)nn23)cc1 | 79 | 75 | 101 | -5
COc1ccc2oc(=O)cc(CN3CCCc4ccccc43)c2c1 | 84 | 87 | 116 | -20
CCC1=NN(C(=O)Cc2ccccc2)C(O)(c2ccc(Br)cc2)C1 (stereo unspecified) | . | . | 99 | -25
COc1ccccc1NC(=O)CSc1ccc(-c2ccccn2)nn1 | 80 | 63 | 104 | .
Cc1ccc(NC(=O)CSc2nc(-c3cccs3)nc3cc(=O)[nH]n23)cc1 | 66 | 80 | 99 | .
CCCc1cc(C(=O)NC2CCCCC2)no1 | 91 | 93 | 103 | 4
Cc1ccc2c(CN(C)Cc3ccco3)cc(=O)oc2c1 | 90 | 75 | 102 | .
CC(O)C(C(=O)O)N1C(=O)c2ccccc2C1=O (stereo unspecified) | 73 | 81 | . | -16
O=C(O)c1coc(=O)c(Br)c1 | 97 | 80 | 95 | 11
CCN1C(=O)c2ccc(C(=O)NCc3ccccc3)cc2C1=O | 99 | 94 | 104 | -67
CCOc1ncccc1C(=O)Oc1ccc(C(=O)OC)cc1OC | 99 | 89 | . | -24
Cc1cc(CN2CCN(CCC#N)CC2)c(O)c(C2(C)CCCCC2)c1 | 101 | 98 | 109 | 4
Cc1nc(NC(=O)CSc2nc3cccnc3n2C2CCCCC2)sc1C | 102 | 96 | 94 | -25
N#CCC(=O)Nc1ccc(C(=O)OCc2ccccc2Cl)cc1 | 98 | 78 | . | -24
S=c1n(CN2CCCCC2)cnn1CN1CCCCC1 | 87 | 80 | 118 | .
CCn1c(C(=O)N2CCc3ccccc3C2)cc2sccc21 | 95 | 88 | 103 | .
COc1ccc(CNC(=O)C2CCN(S(=O)(=O)N3CCC(C)CC3)CC2)c(OC)c1 | 114 | 92 | 102 | .
CCOc1ccc(NC(=O)c2ccc3c(=O)n4nc(Nc5ccccc5C)sc4nc3c2)cc1 | 108 | 88 | 112 | .
O=C1NC(=O)/C(=C\c2ccc(N3CCCC3)c(F)c2)N1 | 107 | 70 | 122 | .
CCC(CC)NC(=O)/C=C/c1ccccc1 | 104 | 105 | 103 | -18
Cc1ccc(-c2sc(-c3ccccc3)nc2CC(=O)O)cc1 | 110 | 82 | . | -40
CCN(CC)c1nc2c(S(=O)(=O)c3ccccc3)nnn2c2ccccc12 | 84 | 83 | 108 | .
CCOc1cc(C2C3=C(CC(c4ccccc4)CC3=O)Nc3onc(C)c32)ccc1O (stereo unspecified) | . | . | 104 | 2
CCCCOC(=O)c1cccc(NC(=O)c2cc3ccccc3o2)c1 | 94 | 92 | 100 | 138*
Cc1ccc2nc(N3CCN(c4cccc(C(F)(F)F)c4)CC3)c3nnnn3c2c1 | 111 | 96 | 135 | .
COc1ccc(NC(=O)N2CCCN(c3ccc(=O)n(-c4ccccc4)n3)CC2)cc1OC | . | . | 103 | -53

Some values from the list:
CCCc1cc(C(=O)NC2CCCCC2)no1 in Sa growth 42C second temp: 93
CCCCOC(=O)c1cccc(NC(=O)c2cc3ccccc3o2)c1 in GIV-Gai inh: 100
COc1ccc(C(=O)CSC2=C(C#N)C(C)(C)C(C#N)=C(N)N2)cc1 in Sa growth 42C: 120

Random excerpt: two entries already listed.
SMILES | Sa growth 42C | Sa growth 42C second temp | GIV-Gai inh | HCMV UL50-53 inh
Cc1ccccc1NC(=O)Cn1c(=O)n(CCc2ccccc2)c(=O)c2ccccc21 | 92 | 86 | 100 | -10
O=C(O)c1coc(=O)c(Br)c1 | 97 | 80 | 95 | 11

(further entries)
SMILES | Sa growth 42C | Sa growth 42C second temp | GIV-Gai inh | HCMV UL50-53 inh
COc1ccccc1NC(=O)CSC1=Nc2ccccc2N=C(c2ccc(F)cc2)C1 | 87 | 90 | 102 | .
O=c1c(S(=O)(=O)c2cccc(Cl)c2)cn(Cc2ccccc2)c2cc(N3CCCCC3)c(F)cc12 | 92 | 92 | 101 | .
COc1ccc(Nc2c(-c3ccccc3)nc3cnccn23)cc1 | 115 | 75 | 98 | .
CCOC(=O)Cc1ccc(NC(=O)N2CCc3c(sc4c3CCCC4)C2c2ccccc2)cc1 (stereo unspecified) | . | . | 101 | -1
COc1ccccc1NC(=O)Cn1cnc2c(nc3n2CCCCC3)c1=O | 108 | 90 | 98 | .
O=C(CSc1nncc(=O)[nH]1)NCc1ccccc1 | 93 | 103 | 98 | -7
O=C(C1CCC(Cn2c(=O)c3sccc3n(Cc3ccccc3F)c2=O)CC1)N1CCOCC1 (stereo unspecified) | 89 | 88 | 98 | .
COc1ccc(-c2nc3c4c(C)c(C)n(-c5cccc(C)c5)c4ncn3n2)cc1OC | . | . | 103 | -24
O=C(OCCCN1CCOCC1)c1ccc(O)cc1O | 110 | 76 | 102 | -24
C=CCN(CC=C)S(=O)(=O)c1ccc(NC(=O)c2cccnc2)cc1 | 91 | 93 | 104 | 0
N/N=C(/Cn1nnc(N2CCCCC2)n1)c1ccc(Cl)cc1 | 75 | 58 | 103 | -26
CCn1ccc2cc(S(=O)(=O)N3CCCN(C(=O)NCC(C)C)CC3)ccc21 | 80 | 87 | 102 | .
CCOC(=O)N1CCC(NC(=O)c2ccc3c(Cl)c4c(nc3c2)CCCC4)CC1 | 92 | 92 | 109 | -16
C=CCSc1nnc(Cn2c(=O)sc3ccccc32)n1-c1ccccc1 | 103 | 85 | 106 | -5
CC(C)c1ccc(S(=O)(=O)N2CCN(CC(=O)Nc3ccccc3C(F)(F)F)CC2)cc1 | 100 | 84 | 99 | .
CCCNC(=O)c1oc(=O)c2ccccc2c1-c1ccccc1 | 106 | 78 | 103 | .
CC(C)OC(=O)CSc1n[nH]c(-c2cccnc2)n1 | 72 | 82 | 104 | 4
CCn1c(=O)c2cc(C(=O)Nc3cccc(C(F)(F)F)c3)sc2c2ccccc21 | 118 | 90 | 97 | -33
Fc1ccc(CNC(c2ccc(Br)cc2)c2nnc(-c3ccccc3)o2)cc1 (stereo unspecified) | . | . | 98 | -13
CCC(C)NC(=O)Cn1c(=O)n(CC(=O)NCc2ccc(C)cc2)c(=O)c2sccc21 (stereo unspecified) | 95 | 100 | 99 | .
Cc1ccccc1C(=O)Nc1ccccc1C(=O)OCc1cc(=O)n2nc(C3CC3)sc2n1 | 81 | 96 | 107 | .
Clc1ccc(-c2ncnn2-c2ccc(Br)nc2)cc1 | 101 | 95 | 106 | -2
Cc1cc(C)cc(N2C(=O)CN(Cc3ccc4c(c3)OCO4)[C@H]3CS(=O)(=O)C[C@H]32)c1 | . | . | 101 | -22
CCn1ccc2cc(S(=O)(=O)N3CCCN(C(=O)Nc4ccccc4OC)CC3)ccc21 | 88 | 88 | 99&100 | -10
CCOc1ccc(NC(=O)CSc2nc3ccccc3nc2N2CCC(C)CC2)cc1 | . | . | 100 | -5
N#Cc1ccc(NCC(=O)Nc2ccc(S(=O)(=O)N3CCCCC3)cc2)cc1 | 94 | 86 | . | -3
Cc1cc(C(=O)Oc2ccccc2Cc2ccccc2)on1 | 88 | 95 | . | 6
CCCCCOC(=O)CSc1nc2sc3c(c2c(=O)n1Cc1ccccc1)CC(C)(CC)OC3 (stereo unspecified) | 90 | 82 | 102 | -37
c1ccc(-c2nccnc2-c2ccccn2)nc1 | 91 | 89 | 96 | 27
CCOC(=O)c1cnc(SC(C)C(=O)Nc2ccc3c(c2)OCCO3)nc1N (stereo unspecified) | . | . | 102 | -8
COc1ccc(NC(=O)COc2cc(=O)n(C)c3ccccc23)cc1OC | 81 | 86 | 96 | -23
COc1cc2c(cc1OC)C(COc1ccccc1OC)N(C(=O)/C=C/c1ccccc1)CC2 (stereo unspecified) | 112 | 98 | 105 | .
COc1ccc(-c2noc(C3CC(=O)N(c4ccc(C)c(F)c4)C3)n2)c(OC)c1 (stereo unspecified) | 117 | 92 | 99 | .
C=CCN1CCN(C(=O)c2cccc(C)c2)CC1 | 100 | 100 | 108 | 11
CCCCNC(=O)c1cnc(N(C)C)nc1C | . | . | 99 | -28
O=C(c1[nH]c2ccccc2c1Sc1ccc(Cl)cc1)N1CCN(c2ccccn2)CC1 | . | . | 100 | -24
COCCNC(=O)c1ccc(-n2c(-c3ccccc3)cc3c2CCC(C)C3)cc1 (stereo unspecified) | 107 | 99 | 98 | 12
CC1=C(C(=O)Nc2ccccc2C)C(c2ccc(Cl)cc2Cl)NC(=O)N1 (stereo unspecified) | . | . | 102 | -12

A draw from above in order of length of the SMILES, low to high.
SMILES | Sa growth 42C | Sa growth 42C second temp | GIV-Gai inh | HCMV UL50-53 inh
c1ccc(-c2nccnc2-c2ccccn2)nc1 | 91 | 89 | 96 | 27
C=CCN1CCN(C(=O)c2cccc(C)c2)CC1 | 100 | 100 | 108 | 11
COc1ccc(NC(=O)COc2cc(=O)n(C)c3ccccc23)cc1OC | 81 | 86 | 96 | -23
CC1=C(C(=O)Nc2ccccc2C)C(c2ccc(Cl)cc2Cl)NC(=O)N1 (stereo unspecified) | . | . | 102 | -12
COCCNC(=O)c1ccc(-n2c(-c3ccccc3)cc3c2CCC(C)C3)cc1 (stereo unspecified) | 107 | 99 | 98 | 12
COc1ccc(-c2noc(C3CC(=O)N(c4ccc(C)c(F)c4)C3)n2)c(OC)c1 (stereo unspecified) | 117 | 92 | 99 | .
COc1cc2c(cc1OC)C(COc1ccccc1OC)N(C(=O)/C=C/c1ccccc1)CC2 (stereo unspecified) | 112 | 98 | 105 | .

Bioassay records as filed in PubChem.
